# Screening data (PubChem)
# Lassa entry inh: inhibitors of Lassa virus binding or cell entry. Lassa virus pseudotype entry inhibition, cell reporter; control for the full effect not named in the record. Potency, µM (highest dose often 37.9 µM), inactives show at the top dose activity change, negative = inhibition, most hits filed as inhibitors. 300,000 compounds, 1.2% hits; active means well fitted inhibition curve with a large enough effect; inconclusive means small, poorly fitted or top-dose-only effect, or effect the other way; inactive means flat fitted curve, though single readings scatter; tested in HEK293 cells; note: % is set by controls: 0 for no effect and ±100 for the full control effect; nearly all actives have a fitted effect of over 50% in size; luciferase read-out
# SARS PLP yeast: blocks SARS-CoV papain-like protease in a yeast assay. S. cerevisiae expressing SARS-CoV PLpro, growth rescue; control for the full effect not named in the record. Potency, µM (highest dose often 32.9 µM), for the others: at the highest dose activity, positive = growth rescue. 330,000 compounds, 0.19% hits. AID 485353; note: 0% is about no effect; nearly all actives have a fitted effect of over 55% in size; growth read by luminescence after 48 h
# 2A StopGo: lowers the luciferase signal of an FMDV 2A StopGo reporter. Potency, µM (highest dose often 57.9 µM), for the others: top-dose signal change, negative = less light. AID 1159524. 410,000 compounds, 1.2% hits. human cells with a luciferase reporter of 2A StopGo recoding; control for the full effect not named in the record; active = well fitted falling curve with a large enough effect; inconclusive = small, poorly fitted or top-dose-only effect; inactive = no such curve, though single readings can be large or run the other way; tested in HEK293T cells; note: % is set by controls: 0 for no effect and ±100 for the full control effect; nearly all actives have a fitted effect of over 45% in size; luciferase light after 4 h
# Cruzain inh Det: blocks cruzain activity in presence of Triton detergent | P25779 | purified cruzain, Z-FR-AMC fluorescence, 0.01% Triton | Potency, µM, without a hit: max response, negative = inhibition, actives largely listed as inhibitors | 200,000 compounds, 0.43% hits; active = well fitted curve in the direction sought with a large enough effect; inconclusive = small, poorly fitted or top-dose-only effect, or another doubt; inactive = no such curve, though single readings can be large; an effect the other way counts as inactive or inconclusive;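 note: plate controls were neutral wells for no effect and buffer without enzyme for full effect; nearly all actives have a fitted effect of over 40% in size; top concentration of the series not given in the record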
# Target sequence (P25779 123-467 limits assumed): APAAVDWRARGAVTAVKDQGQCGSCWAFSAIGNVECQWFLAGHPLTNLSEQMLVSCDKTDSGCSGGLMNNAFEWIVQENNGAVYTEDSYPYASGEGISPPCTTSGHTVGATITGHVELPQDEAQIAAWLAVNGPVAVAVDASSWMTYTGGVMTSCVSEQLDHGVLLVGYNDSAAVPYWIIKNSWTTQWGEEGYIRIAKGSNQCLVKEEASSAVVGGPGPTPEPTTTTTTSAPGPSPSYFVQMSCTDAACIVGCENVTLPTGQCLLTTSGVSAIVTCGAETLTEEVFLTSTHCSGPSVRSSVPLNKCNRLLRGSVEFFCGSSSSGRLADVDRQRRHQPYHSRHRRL
#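 Cruzain (1.5 nM) preincubated 15 min at RT with compound in 100 mM sodium acetate pH 5.5, 5 mM DTT, 0.01% Triton X-100. Reaction started with 2 uM Z-FR-AMC; AMC fluorescence (ex 360/em 450 nm) change over 60 s gave rate.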
# Cruzain noTriton: inhibitors of Trypanosoma cruzi cruzain without detergent | 200,000 compounds, 2.3% hits | P25779 | Potency, µM, for inactives: max response, negative = inhibition, actives largely listed as inhibitors | purified cruzain, Z-FR-AMC fluorescence, no detergent; active = well fitted curve in the direction sought with a large enough effect; inconclusive = small, poorly fitted or top-dose-only effect, or another doubt; inactive = no such curve, though single readings can be large; an effect the other way counts as inactive or inconclusive;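 note: plate controls were enzyme without inhibitor for no effect and buffer without enzyme for full effect; nearly all actives have a fitted effect of over 40% in size; top concentration of the series not given in the record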
#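 Detergent-free condition (0.00005% Triton X-100) in acetate buffer pH 5.5 with DTT. 1.5 nM enzyme and compound were pre-mixed 15 min, then 2 uM Z-FR-AMC substrate added; reaction progress from fluorescence change between first and third reads (60 s).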
# RE007 growth inh: less growth of the S. pombe RE007 Vpr strain; 360,000 compounds, 0.21% hits; S. pombe RE007 Vpr strain, BacTiter-Glo ATP luminescence, 24 h; control for the full effect not named in the record; Potency, µM (titrated, usually from 92.2 µM), for inactives: top-dose activity change, negative = less growth; active = well fitted falling curve with a large enough effect; inconclusive = small, poorly fitted or top-dose-only effect; inactive = no such curve, though single readings can be large or run the other way;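 note: % is set by controls: 0 for no effect and ±100 for the full control effect; nearly all actives have a fitted effect of over 50% in size; the assay follows cell death caused by Vpr and the record does not say whether a fall means rescue or toxicity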
#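 Fission yeast RE007 carrying one integrated HIV-1 vpr copy, seeded at OD 0.01 in PMG+AL medium with 23 nL pinned compound. Grown 24 h at 30 degrees; viability read by BacTiter-Glo luminescence after 5 min.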
# Marburg entry inh: Marburg virus entry inhibition; Marburg virus pseudotyped entry inhibition, cell reporter; control for the full effect not named in the record; about a third of the inactives were read at about 46 µM; Potency, µM (top dose mostly 37.8 µM), inactives show top-dose activity change, negative = inhibition, usual class: inhibitors; 300,000 compounds, 1.8% hits; active = well fitted inhibition curve with a large enough effect; inconclusive = small, poorly fitted or top-dose-only effect, or effect the other way; inactive = flat fitted curve, though single readings scatter; tested in HEK293 cells; about a fifth of its hits are not listed in these tables; note: % is set by controls: 0 for no effect and ±100 for the full control effect; luciferase read-out
# NS1 function inh: blocks influenza NS1 protein function | AID 2326 | 270,000 compounds, 0.4% hits | Potency, µM (doses to about 46.1 µM), inactives show at the top dose activity, positive = more growth | S. cerevisiae slowed by influenza A NS1, growth recovery by OD600; note: actives are rising curves; nearly all actives have a fitted effect of over 50% in size
#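 OD600 was taken as the measure of yeast growth restored by compound in an NS1-expressing S. cerevisiae strain. Cells had been washed out of glucose medium and diluted 1:100 into galactose -URA medium, pH 6.0.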
# * hit, by the source's call; ? = inconclusive; . = not tested or not shown; & = joins results of further samples; [ ] = dose if it differs, or a comment. Unless noted, calls come from the whole dose curve; as a rule, active means well fitted rising curve with a large enough effect; inconclusive means small, poorly fitted or top-dose-only effect; inactive means no such curve, though single readings can be large or run the other way. Potency is the fitted concentration of half-maximal effect.
SMILES,Lassa entry inh,SARS PLP yeast,2A StopGo,Cruzain inh Det,Cruzain noTriton,RE007 growth inh,Marburg entry inh,NS1 function inh
Cc1ccc(-n2nc3c(=O)n(C(C)C(=O)NCc4ccccc4Cl)nc(C)c3c2C)cc1 (stereo not given),.,0%,?,.,.,-1%,.,-11%
Cc1cccc(N2CCN(Cc3cc(=O)n4ccsc4n3)CC2)c1C,-17%,-5%,?,0.2%,8%,8%,?,2%
Cc1c(Cl)cccc1NC(=O)c1oc2ccc(S(=O)(=O)N3CCCCCC3)cc2c1C,25%[46.1 µM],.,-9%,1.2%,-18%,.,.,.
COc1ccc(NC(=O)CSc2nc(-c3ccc(F)cc3)c3cccc(C)c3n2)cc1,23%[46.1 µM],.,-15%,2.9%,-7%,.,3%[46.1 µM],.
S=C(NCCCN1CCN(CCCNC(=S)NC2CCCCC2)CC1)NC1CCCCC1,-15%[46.1 µM],.,-2%,.,.,3%,?,.
NC(=NC1CCCCC1)c1ccc([N+](=O)[O-])cc1,4%,3%,-20%,12%,-4%,-23%,-26%,2%
Cc1ccc(S(=O)(=O)N(C)c2ccccc2C(=O)Nc2c(F)cccc2F)cc1,-11%,-3%,29%,.,.,9%,?,-3%
O=C(NCC(c1ccco1)N1CCCC1)c1cc2cc(Cl)ccc2o1 (stereo not given),0%,-19%,-1%,.,.,-24%,?,.
Cc1ccc2c(=O)cc(C(=O)Nc3sc4c(c3C(=O)NCc3cccnc3)CCCC4)oc2c1,-15%[46.1 µM],.,-23%,-1.0%,-8%,.,17%[46.1 µM],.
CCN(CC)c1ccc(CN(C)CCc2ccc(OC)c(OC)c2)cc1,?,3%,-14%,0.5%,-1%,-21%,?,-6%
CCOC(=O)c1c(C)[nH]c(C(=O)OCC(=O)NC(C)(C)C)c1C,?,-2%,-26%,.,.,4%,-6%[46.1 µM],-1%
O=C(NCc1ccccc1Cl)C1CCC(CNc2nc(=S)[nH]c3ccccc23)CC1 (stereo not given),-6%,2%,-10%,.,.,1%,18%,.
NC(=O)C1CCN(C(=O)c2ccc(NC3=NC4CS(=O)(=O)CC4S3)cc2)CC1 (stereo not given),.,4%,4%,1.1%,9%,14%,.,1%
Cc1cn2c(=O)cc(COC(=O)c3cccc(NC(=O)COc4ccccc4Cl)c3)nc2s1,29%[46.1 µM],.,8.9µM*,3.6%,9%,.,.,.
O=c1c2c3c(sc2ncn1/N=C/c1ccc(Br)o1)CCCC3,-14%,-2%,.,-3.1%,0%,-2%,?,-20%
NC(=O)c1oc2ccccc2c1NC(=O)Cc1ccccc1,.,2%,-8%,.,.,0%,.,-3%
O=C1CCCN1CCCNCC(=O)N1c2ccccc2Sc2ccccc21,?,6%,-12%,5.2%,7%,-25%,-2%[46.1 µM],4%
CCn1[nH]c(=O)c(=Nc2c(C)n(C)n(-c3ccccc3)c2=O)cc1-c1ccc(Cl)cc1,0%,0%,-28%,1.4%,?,4%,10%,-10%
CN(C(=O)COC(=O)/C=C/c1ccccc1[N+](=O)[O-])c1ccccc1,14%,2%,53%[activator],.,.,-8%,16%[46.1 µM],.
CC(=O)c1c(C)oc2ccc(N(C(=O)Oc3ccccc3)S(=O)(=O)c3ccc(C(C)(C)C)cc3)cc12,-7%[46.1 µM],.,?,6.2%,-13%,.,.,.

# A different layout for some results above.
# Every second line gives: Lassa entry inh | SARS PLP yeast | 2A StopGo | Cruzain inh Det | Cruzain noTriton | RE007 growth inh | Marburg entry inh | NS1 function inh
- Cc1cn2c(=O)cc(COC(=O)c3cccc(NC(=O)COc4ccccc4Cl)c3)nc2s1
  29%[46.1 µM] | . | 8.9µM* | 3.6% | 9% | . | . | .
- O=c1c2c3c(sc2ncn1/N=C/c1ccc(Br)o1)CCCC3
  -14% | -2% | . | -3.1% | 0% | -2% | ? | -20%
- NC(=O)c1oc2ccccc2c1NC(=O)Cc1ccccc1
  . | 2% | -8% | . | . | 0% | . | -3%
- O=C1CCCN1CCCNCC(=O)N1c2ccccc2Sc2ccccc21
  ? | 6% | -12% | 5.2% | 7% | -25% | -2%[46.1 µM] | 4%

# (more compounds)
SMILES,Lassa entry inh,SARS PLP yeast,2A StopGo,Cruzain inh Det,Cruzain noTriton,RE007 growth inh,Marburg entry inh,NS1 function inh
O=C(c1cccs1)N1CCN=C1SCc1ccc(Cl)cc1,20%,0%,-6%,.,.,?,?,.
O=c1oc2ccccc2cc1-c1cn2cc(Cc3ccccc3F)sc2n1,-1%[46.1 µM],.,37%,-0.4%,6%,.,?,.
COc1ccc(CC(=O)NNC(=O)COc2ccc3ccccc3c2)cc1,-3%,5%,32%[activator],-3.1%,14%,-6%,?,-17%
Clc1ccc(Nc2ccc(NCc3ccccc3)nn2)cc1,10%,12%,9%,-15%,6%,13%,6%,-22%
CC(=O)Nc1cc(C(=O)NCc2ccccc2)ccc1Sc1ccc(C)cc1,-19%[46.1 µM],.,2%,-0.4%,4%,.,.,.
CN(Cc1ccccc1)S(=O)(=O)c1cn(C)cn1,4%,0%,-1%,.,.,2%,?,5%
COC(=O)c1ccc(C(=O)N2CCCC(CNC(=O)c3ccc(F)cc3)C2)cc1 (stereo not given),.,6%,-24%,.,.,4%,.,-17%
Cc1ccc(NC(=O)COC(=O)Cc2csc(-c3cccc(F)c3)n2)cc1C,-4%,12%,-8%,-8.0%,15%,-3%,?,15%
Cc1ccc(-c2cc(NC(=O)C(C)Oc3ccc(C)c(C)c3)on2)cc1 (stereo not given),7%[46.1 µM],.,-18%,5.8%,?,.,27%[46.1 µM],.
CCCOc1ccc(/C(O)=C2/C(=O)C(=O)N(CCCn3ccnc3)C2c2cccs2)cc1 (stereo not given),.,29%,-4%,-4.2%,2%,4%,2%,3%
CCn1c(SCc2nc3scc(-c4ccccc4)c3c(=O)[nH]2)nnc1-c1cccs1,-10%,2%,?,-4.3%,-26%,17%,?,-30%
COc1ccc(NS(=O)(=O)c2ccc(C(=O)Nc3c(C)n(C)n(-c4ccccc4)c3=O)cc2)cc1,13%,5%,-13%,.,.,10%,?,.
Cc1ccc(C(=O)OCC(=O)N2CCOCC2)cc1,9%,0%,32%[activator],.,.,6%,8%[46.1 µM],-16%
CCN(C(=O)C1CCCN(c2nc(-c3ccc(OC)cc3)no2)C1)c1ccccc1F (stereo not given),.,-13%,-18%,.,.,2%,.,-31%
CC1CCN(S(=O)(=O)c2ccc3c(c2)oc(=O)n3CC(=O)NC(C)c2ccccc2)CC1 (stereo not given),?,.,0%,-9.1%,6%,.,?,.
O=C(NCc1ccncc1)c1ccc(NS(=O)(=O)c2cccc([N+](=O)[O-])c2)cc1,-12%,3%,-3%,.,.,11%,-10%,.
COc1ccccc1OCCC(=O)OCC(=O)Nc1ccc2c(c1)OCCO2,-3%[46.1 µM],0%,-11%,.,.,-17%,-3%[46.1 µM],.
CCOP(=O)(/C=C(\Cl)c1ccccc1)C(O)c1ccc(F)cc1 (stereo not given),.,1%,14%,.,.,-17%,.,0%
Cc1ccc(-c2csc(-c3cc(C)on3)n2)cc1,.,-1%,63%[activator],.,.,-4%,.,-4%
COc1ccc(C(=O)N2CCN(Cc3ccc4c(c3)OCO4)CC2)cc1[N+](=O)[O-],?,0%,-15%,.,.,-7%,?,1%
Cc1cc(-c2ccc(C)c(S(=O)(=O)N3c4ccccc4CC3C)c2)on1 (stereo not given),?,.,?,-1.8%,-7%,.,.,.
COc1cc(/C=N/NC(=O)c2cccnc2)ccc1OC(=O)c1ccco1,-3%,7%,11%,-4.0%,-6%,-9%,6%,0%
NC(=O)CC[C@@H]1NC(=O)[C@@H]2CCCN2C(=O)c2cc([N+](=O)[O-])cc(I)c2NCCCC[C@@H](C(=O)NC(CC(=O)O)C(N)=O)NC1=O (stereo not given in full),-1%,-6%,10%,-7.7%,18%,-10%,0%,-4%
COc1ccccc1NC(=O)/C=C1\SCC(=O)N1C,18%[46.1 µM],-3%,-5%,.,.,1%,-28%[46.1 µM],.
CN1CCN(c2ccc(-c3ccnn3C(=O)Nc3cccc(C(F)(F)F)c3)cc2)CC1,.,-6%,21%,.,.,7%,.,-35%
O=c1c2ccsc2ncn1Cc1ccc(Cl)cc1,2%,2%,-14%,2.1%,-11%,7%,2%,-38%
Cn1c(=O)n(C/C=C/c2ccccc2)c(=O)c2c1nc1n2CCCN1Cc1ccccc1,-5%,1%,-29%,-2.8%,-22%,-3%,?,?
O=C(CCc1nc(-c2ccccc2)no1)N1CCCC1,1%,1%,19%,-5.1%,-1%,-12%,12%&12%,1%
COCCN1CN(S(=O)(=O)c2cccc(Cl)c2)c2nc3ccccc3nc21,.,-19%,4%,.,.,-8%,.,6%
Cc1ccc(C(=O)CSC2=C(C#N)C(c3ccco3)C3=C(CCCC3=O)N2)cc1 (stereo not given),?,-2%,0%,1.7%,19%,-15%,?,16%
COc1ccc(CCNC(=O)C2CC3Cn4c(nc5cc6ccccc6cc54)C3N2C)cc1 (stereo not given),.,0%,0%,.,.,-12%,.,6%
O=C(NCC(c1ccco1)N1CCOCC1)c1cccc(Cl)c1 (stereo not given),9%,5%,-4%,.,.,7%,-4%[46.1 µM],.
COc1cccc(NC(=O)Nc2nnc(Cc3ccccc3)s2)c1,.,1%,-7%,.,.,3%,.,11%
O=C1CCN(C(=O)CNC(=O)Cc2ccccc2)CC1,-19%[46.1 µM],0%,9%,.,.,14%,?,.
CCN(C(=O)c1cc2c(=O)n(CC)c3ccccc3c2s1)c1cccc(C(F)(F)F)c1,-9%[46.1 µM],.,?,0.8%,3%,.,4%[46.1 µM],.
CCCOc1ccc(-c2c(C(=O)N/N=C/C3CCCCC3)nnn2-c2nonc2N)cc1,.,?,-5%,.,.,2%,.,?
O=C(COc1ccc(Br)cc1Cl)NC(=S)N1CCc2ccccc21,?,-19%,14%,-2.2%,?,-10%,1%[46.1 µM],8%
